FGF22 binding = binders of recombinant human FGF22 by thermal shift. SYPRO orange fluorescence; percent of sucrose octasulfate shift, DMSO zero. Q9HCT0. 340,000 tested, 1.5% active. AID 651658. calls only at 9.99 µM;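 active means melting point raised past a set limit in the mean and every replicate; three in four hits are not shown here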
Target sequence (Q9HCT0 whole entry, looked up): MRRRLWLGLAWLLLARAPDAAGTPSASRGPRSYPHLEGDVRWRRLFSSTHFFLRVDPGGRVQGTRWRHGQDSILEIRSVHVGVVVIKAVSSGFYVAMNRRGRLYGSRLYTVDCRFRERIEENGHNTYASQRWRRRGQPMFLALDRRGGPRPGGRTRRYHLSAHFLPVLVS
Ecoli rRNA inh = inhibitors of bacterial rRNA selective over humanized ribosomes; E. coli WT GFP vs humanized-ribosome RFP mutants, fluorescence, 24 h; hits give low values; DMSO median 0, no signal -100; 350,000 tested, 1.6% active; GFP signal change (wild-type ribosome), % (test concentration not listed);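 active means significant combined selectivity score with lowered wild-type GFP, culture density cut under 30%, mutant RFP and density less affected; inactive means any of these conditions unmet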; further: one replicate is shown; some compounds called inactive have numbers as strong as hits
Ecoli rRNA inh OD600 = second read-out of Ecoli rRNA inh, no call of its own (marks repeat the call); OD600 change, %; measured here: OD600 growth;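 optical density of the mix in the first replicate; 0 = DMSO median and -100 = no signal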
Ecoli rRNA inh RFP = second read-out of Ecoli rRNA inh, no call of its own (marks repeat the call); RFP signal change, %; measured here: RFP humanized mutant strains;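 first replicate; 0 = DMSO median and -100 = no signal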
An asterisk follows results filed as active; i = inactive; . = no result given. Only part of the results is shown, so the mix of outcomes need not match the whole.

SMILES	FGF22 binding	Ecoli rRNA inh	Ecoli rRNA inh OD600	Ecoli rRNA inh RFP
C[C@@H]1CN([C@H](C)CO)C(=O)c2cc(NC(=O)Cc3cn(C)c4ccccc34)ccc2O[C@@H]1CN(C)C	i	-2	6	0.1
COc1ccccc1C#Cc1ccc2c(c1)O[C@@H](CN(C)Cc1ccncc1)[C@H](C)CN([C@@H](C)CO)S2(=O)=O	i	-5	-5	1.7
CS(=O)(=O)Nc1ccc2c(c1)[C@H]1C[C@@H](CC(=O)NCc3ccccc3)O[C@H](CO)[C@H]1O2	i	1	0	-1.9
Cc1noc(C)c1S(=O)(=O)N(C)C[C@H]1OCCCC[C@H](C)Oc2ccc(NC(=O)Nc3ccc4c(c3)OCO4)cc2C(=O)N([C@H](C)CO)C[C@@H]1C	i	-1	-1	-1.5
C[C@@H]1CCCCO[C@H](CN(C)S(=O)(=O)c2ccccc2)[C@@H](C)CN([C@@H](C)CO)C(=O)c2cc(NC(=O)Nc3ccc(C(F)(F)F)cc3)ccc2O1	i	4	8	-2.1
O=C(O)[C@H]1[C@H](CO)[C@H]2Cn3c(ccc(-c4ccccc4F)c3=O)[C@H]2N1Cc1ccccc1	i	-1	4	1.0
CS(=O)(=O)N1[C@H](C#N)[C@H](c2ccc(C#CC3CCCCC3)cc2)[C@@H]1CO	i	-1	-1	-0.6
C[C@@H]1CN([C@H](C)CO)C(=O)c2cc(NC(=O)Nc3ccccc3)ccc2O[C@H]1CN(C)CC1CCCCC1	i	3	8	-3.2
C[C@H]1CCCCO[C@H](CN(C)C(=O)NC2CCCCC2)[C@@H](C)CN([C@@H](C)CO)C(=O)c2cc(NC(=O)Nc3ccccc3)ccc2O1	i	-1	-9	0.2
C[C@H]1CN([C@@H](C)CO)C(=O)c2cccc(NC(=O)c3cnccn3)c2O[C@H]1CN(C)Cc1ccncc1	i	2	0	-4.6
COc1ccc2c3c(n(C)c2c1)[C@H](CO)N(C(=O)c1ccccn1)CC31CN(C)C1	i	3	12	-0.9
COc1ccc2c3c([nH]c2c1)[C@@H](CO)N(Cc1cccnc1)CC31CN(C(=O)CN(C)C)C1	i	-2	-1	0.7
CN(C)C(=O)C[C@H]1CC[C@@H]2[C@H](COc3ccc(NC(=O)c4ccc(F)c(F)c4)cc3C(=O)N2C)O1	i	2	8	5.0
C[C@@H]1CN([C@H](C)CO)C(=O)c2cc(NC(=O)Cc3cn(C)c4ccccc34)ccc2O[C@H]1CN(C)Cc1ccccc1	i	3	1	4.7
O=C(Nc1ccc(F)cc1)N1CCCCN2[C@@H](CO)[C@@H](c3ccc(-c4ccncc4)cc3)[C@@H]2C1	i	-2	-9	-4.4
CCC(=O)N1C[C@@H](C)[C@@H](OC)CN(C)C(=O)c2cc(NC(=O)C3CCCCC3)ccc2OC[C@@H]1C	i	0	-3	-2.8
COCc1[nH]nc2c1C(c1ccccc1)NC2=O (stereo not drawn)	.	15	16	1.3
C[C@@H]1CN([C@H](C)CO)S(=O)(=O)c2ccc(C3=CCCC3)cc2O[C@H]1CN(C)S(=O)(=O)c1cn(C)cn1	i	1	-10	-3.2
COc1ccccc1CNC(=O)C[C@@H]1C[C@H]2c3cc(NC(=O)C4CCOCC4)ccc3O[C@H]2[C@H](CO)O1	i	2	2	-2.2
COc1ccccc1-c1ccc(C2[C@H]3CNC[C@@H]2N3Cc2ccc(F)cc2)cc1 (stereo partly drawn)	i	-14	-15	-1.1
C[C@H](CO)N1C[C@H](C)[C@H](CN(C)Cc2ccccn2)Oc2ncc(C#Cc3ccc(F)cc3)cc2C1=O	i	1	6	3.0
CO[C@H]1CN(C)C(=O)c2cc(NC(=O)C3CC3)ccc2OC[C@@H](C)N(Cc2nccs2)C[C@@H]1C	i	-2	-3	0.8
Cc1ccc(S(=O)(=O)N(C)C[C@@H]2Oc3ncc(-c4ccc(F)cc4)cc3C(=O)N([C@H](C)CO)C[C@@H]2C)cc1	i	0	8	-3.0
CO[C@@H]1CN(C)C(=O)c2ccc(NC(C)=O)cc2OC[C@H](C)N(CC2CCCCC2)C[C@H]1C	i	-4	-1	1.5
O=C(C[C@H]1CC[C@@H]2[C@H](COC[C@@H](O)CN2C(=O)c2ccccn2)O1)NC1CCC1	i	2	0	-3.4
CCC(=O)N1CC[C@@H]2[C@H]1c1cc(-c3ccc(F)cc3)ccc1N(C)[C@H]2CO	i	-8	-29	-3.3
N#Cc1ccc(-c2ccc3c(c2)[C@@H]2[C@@H](CCN2Cc2ccc4c(c2)OCO4)[C@@H](CO)N3)cc1	i	2	0	-2.2
O=C(C[C@@H]1CC[C@@H](NC(=O)Nc2ccc(C(F)(F)F)cc2)[C@@H](CO)O1)NCc1ccccn1	i	-1	-1	-2.8
O=C(c1ccccn1)N1C[C@H]2[C@@H](c3ccccc31)[C@@H](CO)N2C(=O)C1CC1	i	2	8	-3.0
O=C(Nc1ccc(F)cc1)N[C@H]1CC[C@@H](CC(=O)N2CCOCC2)O[C@@H]1CO	i	1	3	-1.4
CN(C)CC(=O)N1[C@H](C#N)[C@H](c2ccccc2-c2cccc(C(=O)N(C)C)c2)[C@@H]1CO	i	3	10	-2.3
O=C(CN1CCOCC1)N1CC[C@@H]2[C@H](CO)Nc3ccc(-c4ccccc4)cc3[C@@H]21	i	4	11	-5.4
CC(C)[C@H](NC(=O)c1ccccc1)C(=O)N1CCC[C@H]1C(=O)NCc1ccccc1	i	16	10	5.8
CC(C)NC(=O)N(C)C[C@H]1Oc2ncc(C3=CCCCC3)cc2C(=O)N([C@@H](C)CO)C[C@H]1C	i	-2	14	-1.0
CNC[C@@H]1Oc2ccc(NC(=O)Nc3cccc4ccccc34)cc2CC(=O)N([C@H](C)CO)C[C@H]1C	i	-2	8	-0.3
O=C(Nc1ccc(F)cc1)Nc1ccc2c(c1)[C@H]1C[C@@H](CC(=O)N3CCOCC3)O[C@H](CO)[C@H]1O2	i	0	-3	0.5
O=C(c1ccccc1Cl)N1CCSCCS1(=O)=O	i	8	3	6.7
Cc1noc(C)c1NC(=O)Nc1ccc2c(c1)C(=O)N([C@@H](C)CO)C[C@@H](C)[C@H](CN(C)C(=O)Nc1cccc3ccccc13)OCCCC[C@@H](C)O2	i	-2	8	1.3
COCC(=O)Nc1ccc2c(c1)OC[C@H](C)N(C(=O)c1cnccn1)C[C@H](C)[C@@H](OC)CN(C)C2=O	i	1	-1	-2.4
CO[C@H]1CN(C)C(=O)c2ccc(NS(=O)(=O)c3ccc(C)cc3)cc2OC[C@@H](C)N(Cc2nccs2)C[C@H]1C	i	-7	-5	1.7
C[C@H](CO)N1C[C@H](C)[C@H](CN(C)S(=O)(=O)c2cccs2)OCCCC[C@H](C)Oc2ccc(NC(=O)c3ccncc3)cc2C1=O	i	-3	-6	2.6
COCC(=O)Nc1ccc2c(c1)C(=O)N(C)C[C@H](OC)[C@H](C)CN(Cc1ccccn1)[C@H](C)CO2	i	-4	-4	-4.9
O=C(C[C@H]1C=C[C@H](NC(=O)c2ccc3c(c2)OCO3)[C@H](CO)O1)NCc1ccc(Cl)cc1	i	-2	-2	-4.0
CN(C)CC(=O)Nc1ccc2c(c1)[C@H]1C[C@H](CC(=O)NCc3cccc(F)c3)O[C@H](CO)[C@H]1O2	i	4	1	0.3
C[C@@H]1CN([C@@H](C)CO)C(=O)c2cccc(NS(=O)(=O)c3ccccc3)c2O[C@H]1CN(C)Cc1ccc(C(F)(F)F)cc1	i	4	1	-0.6
O=C(C[C@H]1C[C@H]2c3cc(NS(=O)(=O)c4ccccc4)ccc3O[C@H]2[C@H](CO)O1)N1CCCCC1	i	-5	-22	-0.4
CCOC(=O)N[C@@H](CC(C)C)C(=O)N1CCC[C@H]1C(=O)NCc1ccccc1	i	4	4	3.7
COc1ccc(S(=O)(=O)Nc2ccc3c(c2)C(=O)N([C@@H](C)CO)C[C@@H](C)[C@H](CN(C)C(=O)CCC(F)(F)F)OCCCC[C@@H](C)O3)cc1	i	-1	-6	1.9
O=C(C[C@@H]1CC[C@H](NS(=O)(=O)c2ccccc2)[C@H](CO)O1)N1CCc2ccccc2C1	i	-4	-5	-2.4
Cc1noc(C)c1NC(=O)Nc1ccc2c(c1)C(=O)N([C@@H](C)CO)C[C@H](C)[C@@H](CN(C)C(=O)Nc1cccc3ccccc13)OCCCC[C@H](C)O2	i	-2	0	-1.4
N#C[C@H]1N[C@@H](CO)[C@H]1c1ccc(C2=CCCC2)cc1	i	9	21	3.0
C[C@@H]1CN([C@H](C)CO)C(=O)c2cc(-c3ccccc3F)cnc2O[C@@H]1CN(C)C(=O)C1CCOCC1	i	6	8	-1.4
CCC(=O)N(C)C[C@H]1Oc2cc(C#CC3CCCCC3)ccc2S(=O)(=O)N([C@H](C)CO)C[C@H]1C	i	-6	-27	22
CO[C@H]1CN(C)C(=O)c2cc(NC(C)=O)ccc2OC[C@@H](C)N(CC2CC2)C[C@H]1C	i	0	6	-1.0
C/C=C/c1ccc2c(c1)O[C@@H](CN(C)S(C)(=O)=O)[C@H](C)CN([C@@H](C)CO)S2(=O)=O	i	-6	-3	-6.2
CO[C@H]1CN(C)C(=O)c2ccc(NS(C)(=O)=O)cc2OC[C@H](C)N(CC2CCCCC2)C[C@H]1C	i	1	3	2.0
Cc1ccc(S(=O)(=O)Nc2ccc3c(c2)C(=O)N([C@@H](C)CO)C[C@@H](C)[C@@H](CN(C)Cc2ccc(C(F)(F)F)cc2)OCCCC[C@H](C)O3)cc1	i	2	1	-0.9
Cc1cc(C(=O)Nc2cccc3c2O[C@@H](CN(C)Cc2ccc(C(=O)Nc4ccccc4N)cc2)[C@H](C)CN([C@H](C)CO)C3=O)n(C)n1	i	-4	1	-4.2
Cc1noc(C)c1NC(=O)Nc1ccc2c(c1)C(=O)N([C@@H](C)CO)C[C@@H](C)[C@H](CN(C)C)O2	i	6	6	-1.9
CC=Cc1ccc2n(c1=O)C[C@@H]1[C@@H](CO)[C@H](C(=O)NC3CCC3)N(C(=O)C3CCC3)[C@H]21 (mixture of isomers)	i	2	2	-1.0
The list goes on.
SMILES	FGF22 binding	Ecoli rRNA inh	Ecoli rRNA inh OD600	Ecoli rRNA inh RFP
CC(C)NC(=O)N(C)C[C@H]1Oc2ccc(NS(=O)(=O)c3cccs3)cc2CC(=O)N([C@H](C)CO)C[C@@H]1C	i	4	6	-1.2
O=C(CN1CCOCC1)N[C@H]1CC[C@H](CCNC(=O)C2CCCC2)O[C@H]1CO	i	0	-6	-2.2
O=C(C1CC1)N1CC[C@H]2[C@H](CO)Nc3ccc(Br)cc3[C@H]21	i	4	19	3.3
COCC(=O)Nc1ccc2c(c1)[C@H]1C[C@H](CC(=O)NCc3ccccn3)O[C@H](CO)[C@H]1O2	i	-1	-4	-2.1
O=C(C[C@H]1CC[C@H]2[C@@H](COC[C@@H](O)CN2CCC(F)(F)F)O1)NCc1ccc2c(c1)OCO2	i	2	-8	0.3
C[C@@H](NC(=O)[C@H]1[C@H](CO)[C@H]2Cn3c(cccc3=O)[C@@H]1N2Cc1cccnc1)c1ccccc1	i	1	5	-0.7
Cc1noc(C)c1S(=O)(=O)N(C)C[C@H]1OCCCC[C@H](C)Oc2ccc(NC(=O)CCC(F)(F)F)cc2C(=O)N([C@@H](C)CO)C[C@@H]1C	i	2	1	2.2
O=C(NCC1CC1)[C@H]1[C@H](CO)[C@H]2Cn3c(ccc(-c4ccncc4)c3=O)[C@H]2N1Cc1cocn1	i	2	11	-3.3
O=C(Cn1nnc(N2CCCCC2)n1)NN=Cc1ccccc1O	i	7	15	2.3
C[C@H](O)C#Cc1ccc2c(c1)O[C@H](CN(C)Cc1cccnc1)[C@@H](C)CN([C@H](C)CO)S2(=O)=O	i	-2	6	-2.3
O=C(C[C@H]1CC[C@H]2[C@@H](COC[C@@H](O)CN2C(=O)Nc2cccc(Cl)c2)O1)N1CCCCC1	i	-58	-78	-20
C[C@@H]1CN([C@@H](C)CO)C(=O)c2cc(C#CC3CCCC3)cnc2O[C@H]1CN(C)C(=O)c1ccncc1	i	-1	9	-0.2
CNC[C@H]1Oc2c(N)cccc2C(=O)N([C@H](C)CO)C[C@@H]1C	i	0	10	-1.4

Laid out differently: results already given.
canonical_smiles: Cc1noc(C)c1S(=O)(=O)N(C)C[C@H]1OCCCC[C@H](C)Oc2ccc(NC(=O)CCC(F)(F)F)cc2C(=O)N([C@@H](C)CO)C[C@@H]1C
  FGF22 binding = i	Ecoli rRNA inh = 2	Ecoli rRNA inh OD600 = 1	Ecoli rRNA inh RFP = 2.2
canonical_smiles: COCC(=O)Nc1ccc2c(c1)[C@H]1C[C@H](CC(=O)NCc3ccccn3)O[C@H](CO)[C@H]1O2
  FGF22 binding = i	Ecoli rRNA inh = -1	Ecoli rRNA inh OD600 = -4	Ecoli rRNA inh RFP = -2.1
canonical_smiles: CC(C)NC(=O)N(C)C[C@H]1Oc2ccc(NS(=O)(=O)c3cccs3)cc2CC(=O)N([C@H](C)CO)C[C@@H]1C
  FGF22 binding = i	Ecoli rRNA inh = 4	Ecoli rRNA inh OD600 = 6	Ecoli rRNA inh RFP = -1.2
canonical_smiles: O=C(CN1CCOCC1)N[C@H]1CC[C@H](CCNC(=O)C2CCCC2)O[C@H]1CO
  FGF22 binding = i	Ecoli rRNA inh = 0	Ecoli rRNA inh OD600 = -6	Ecoli rRNA inh RFP = -2.2

Screening data deposited in PubChem by Broad Institute.
